MT1-MMP act inh – inhibitors of human MT1-MMP activation. 360,000 tested, 0.061% active. HT1080 RFP-PRO-GFP cells, GFP/RFP ratio fluorescence, overnight; percent of plate control window, DMSO zero. P50281. GFP/RFP ratio change, % at 20 µM;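 active = GFP/RFP ratio change of at least 30% with cell ATP level not reduced by more than half and red fluorescence within 50% of control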; also: strong numbers were not always called active
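Test system: HT1080 RFP-PRO-GFP cells; Benchmarks: DMSO and RFP-L50D-GFP cell wells; Timing: cells overnight before dosing, compound overnight, 37 °C, 5% CO2; Compound: one 20 µM compound dose with 1% DMSO; Read-out: GFP/RFP fluorescence ratio.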
Yeast UUG start – modulators of start codon recognition fidelity in yeast; activity score, % at 18.7 µM; 350,000 tested, 0.13% active; S. cerevisiae UUG-firefly luciferase reporter, luminescence/redox ratio;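 active = replicate mean at a twofold rise or more, about +100% in these data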;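 also: firefly luciferase made from a UUG start codon reports start codon fidelity; reporter light over untreated wells divided by growth signal over untreated wells; some hits fall short of that in this replicate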
Rce1 inhib – blocks yeast Ras-converting enzyme. calls only. Q03530. AID 2563. 290,000 tested, 0.27% active. yeast membranes, quenched prenylated peptide cleavage fluorescence;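 active = fall in fluorescence gain of 50% or more versus controls, with final raw signal at or below 3038400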;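 also: plate controls were neutral control wells for no effect and wells lacking membranes for full effect; tested at 10 µM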
Target sequence (Q03530 whole entry, looked up): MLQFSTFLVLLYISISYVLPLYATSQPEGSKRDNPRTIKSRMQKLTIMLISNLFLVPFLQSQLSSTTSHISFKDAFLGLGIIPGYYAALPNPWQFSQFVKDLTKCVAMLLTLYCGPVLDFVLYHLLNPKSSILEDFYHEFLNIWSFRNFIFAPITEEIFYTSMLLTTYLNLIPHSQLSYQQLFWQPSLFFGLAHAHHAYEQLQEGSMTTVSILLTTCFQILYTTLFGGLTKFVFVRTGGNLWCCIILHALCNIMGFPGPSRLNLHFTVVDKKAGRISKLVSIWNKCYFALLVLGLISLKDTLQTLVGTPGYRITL
eIF4H FP inh – inhibitors of RNA binding by human eIF4H. Q15056. inhibition, % at 35 µM. 290,000 tested, 0.94% active. eIF4H fluorescence polarization binding assay;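 active = 50% or more with normal probe brightness, or confirmed in later tests; about a fifth of its hits are not listed in these tables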;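 also: calls also rest on retests at 20 µM and on dose response follow-up; 0% = protein and probe with vehicle and 100% = probe without protein; strong numbers were not always called active; many hits fall short of the cut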
CSC inhib – blocks cancer stem cells. AID 2717. inhibition, % at 7.5 µM. 300,000 tested, 1.1% active. cancer stem cell-like cells viability, luminescence;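 active = mean at 75% or more and at least half the replicates too; tested in HMLE shEcad cells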;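 also: 0% = median of negative and 100% = median of positive control wells; the first replicate is given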
PABP FP inh – PABP-poly(A) binding inhibition; P11940; PABP-poly(A) RNA binding, fluorescence polarization; inhibition, % at 35 µM; 290,000 tested, 1% active;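 active = 50% or more with normal probe brightness, or confirmed in later tests; about a fifth of its hits are not listed in these tables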;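 also: calls also rest on retests at 20 µM and on dose response follow-up; controls were probe without protein and protein plus probe with vehicle; some compounds called inactive have numbers as strong as hits; many hits fall short of the cut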
Env fusion inh – blocks HIV Env-driven cell-cell fusion; HeLa-JRFL Env/CEM21 cell fusion, luciferase; inhibition, % at 12.3 µM; 360,000 tested, 1.1% active; AID 651610;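 active = mean replicate inhibition score of at least 50 and every replicate individually at or above 50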;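 also: 0% = plate neutral controls and 100% = maraviroc near 300 nM; one replicate is shown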
eIF4H FP inh retest – second read-out of eIF4H FP inh, no call of its own (marks repeat the call); inhibition, %; compound at 20 µM; confirmation average;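 mean of two retest wells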
PABP FP inh retest – second read-out of PABP FP inh, no call of its own (marks repeat the call); inhibition, %; compound at 20 µM; confirmation repeats;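 mean of two retest wells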
MT1-MMP act inh RFP – further read-out of MT1-MMP act inh, marked with its call; RFP signal change, %; measured here: RFP expression control read;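 0 = vehicle wells; hits needed this value within 50% of zero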
Active calls of the source: *; i = inactive; . = no result given; & = joins results of further samples. Some of the compounds tested (hit frequency here may not be typical).

Sample of the layout (five entries):
SMILES | MT1-MMP act inh | MT1-MMP act inh RFP | Yeast UUG start | Rce1 inhib | eIF4H FP inh | CSC inhib | PABP FP inh | Env fusion inh | others
COc1ccc(NCCC(O)c2ccc(Cl)cc2)cc1 (stereo not drawn) | 3 | 1 | 1 | i | 8 | -14 | -3 | -8
CCC(C)(C)NC(=O)C(c1cccnc1)N(C(=O)c1csnn1)c1ccc(C)cc1 (stereo not drawn) | -1 | -1 | . | i | -16 | -17 | 5 | 26
O=C(COC(=O)c1ccc(Cl)nc1)Nc1ncc(Cl)cc1Cl | -8 | -2 | . | i | 14 | -7 | 1 | -14
c1ccc(CCc2ccccc2-c2nc(-c3ccccn3)no2)cc1 | -2 | -5 | 4 | i | -6 | -3 | -4 | .
CCN(CC)S(=O)(=O)c1ccc(C(=O)OCC(=O)NCc2ccco2)cc1 | 0 | 5 | . | i | 35 | 3 | -1 | -7

The listing, from the start:
SMILES | MT1-MMP act inh | MT1-MMP act inh RFP | Yeast UUG start | Rce1 inhib | eIF4H FP inh | CSC inhib | PABP FP inh | Env fusion inh | others
COc1ccc(NCCC(O)c2ccc(Cl)cc2)cc1 (stereo not drawn) | 3 | 1 | 1 | i | 8 | -14 | -3 | -8
CCC(C)(C)NC(=O)C(c1cccnc1)N(C(=O)c1csnn1)c1ccc(C)cc1 (stereo not drawn) | -1 | -1 | . | i | -16 | -17 | 5 | 26
O=C(COC(=O)c1ccc(Cl)nc1)Nc1ncc(Cl)cc1Cl | -8 | -2 | . | i | 14 | -7 | 1 | -14
c1ccc(CCc2ccccc2-c2nc(-c3ccccn3)no2)cc1 | -2 | -5 | 4 | i | -6 | -3 | -4 | .
CCN(CC)S(=O)(=O)c1ccc(C(=O)OCC(=O)NCc2ccco2)cc1 | 0 | 5 | . | i | 35 | 3 | -1 | -7
COc1cc(C(O)P(=O)(OC(C)C)c2ccc(N(C)C)cc2)cc(OC)c1OC (stereo not drawn) | 3 | 3 | -7 | i | 1 | -13 | 3 | 10
CCOc1ccc(NS(=O)(=O)c2ccc(C(=O)NCC(c3cccs3)N3CCOCC3)cc2)cc1 (stereo not drawn) | -2 | -4 | 22 | i | . | -8 | . | -3
Cc1nc([N+](=O)[O-])c(Br)n1Cc1ccc(Cl)c(Cl)c1 | 12 | -1 | -7 | i | -4 | . | 82 | 4 | eIF4H FP inh retest=-9;PABP FP inh retest=-2
Cc1cccc(-n2ncc3c(NCCCN4CCCC4=O)ncnc32)c1 | 3 | 3 | -7 | i | -18 | -14 | -11 | -49
CC1CCCN(C(=O)CN2CCC(c3nc4ccc(Cl)cc4[nH]3)CC2)C1 (stereo not drawn) | 3 | 2 | -16 | i | 91* | -4 | 68* | -43
CN1C(=O)/C(=C/c2ccco2)SC1=Nc1ccc(N2CCOCC2)cc1 | 4 | 1 | . | i | 14 | 0 | 0 | .
CCc1ccc2c(CN3CCC(C(=O)OC)CC3)cc(=O)oc2c1 | 4 | -1 | -19 | i | -8 | -10 | 0 | 10
CC(C)(C)c1ccc(S(=O)(=O)N2CCCC2C(=O)N2CCOCC2)cc1 (stereo not drawn) | 0 | 1 | . | i | 3 | -17 | -2 | -5
Cc1ccc(CN(C(=O)c2ccccc2C)C2CCS(=O)(=O)C2)o1 (stereo not drawn) | -1 | 2 | -10 | i | -9 | -7 | -13 | -15
COCCNS(=O)(=O)c1ccc(-c2ccc(Cl)cc2)cc1 | 10 | -5 | . | i | -8 | . | 1 | -15
CN(Cc1ccccc1)C(=O)c1ccc(NC(=O)C2CCCN(C(=O)OC(C)(C)C)C2)cc1 (stereo not drawn) | 2 | -24 | 3 | . | . | . | . | 20
Cc1ccccc1NC(=O)Cc1nc(COC(=O)C(C)C)cs1 | -2 | 3 | -2 | i | -5 | -6 | -9 | -2
Cc1ccc(C)c(N=Cc2ccc(-c3ccc([N+](=O)[O-])cc3)o2)c1 | -7 | -12 | . | i | 0 | . | -4 | 13
CC(=O)C(C)n1c(CN(C)Cc2ccccc2)nc2c1c(=O)n(C)c(=O)n2C (stereo not drawn) | 2 | -7 | -19 | . | -6 | -16 | 1 | 15
Cn1c(=O)c(C(=O)Nc2ccccn2)c(O)c2ccccc21 | -11 | -10 | -32 | i | -11 | 15 | -1 | -192
Cc1ccccc1-c1nc(C#N)c(N2CCC(C)CC2)o1 | 0 | 0 | -2 | i | 18 | 25 | -8 | 0
Cc1onc(-c2c(F)cccc2Cl)c1C(=O)Nc1cccc2nsnc12 | -4 | -12 | -9 | i | 6 | 17 | 5 | 34
CN(C)S(=O)(=O)c1ccc(NC(=O)Cn2c(-c3ccccc3)noc2=O)cc1 | -3 | 1 | -6 | i | 9 | 1 | 3 | .
c1csc(C2=NNC(=NC3CCCCC3)SC2)c1 | 0 | 4 | 1 | i | 10 | -7 | 5 | -31
CCOCCCNC(=O)c1cc2c(=O)n3cccc(C)c3nc2s1 | . | . | -9 | i | -6 | 0 | 4 | -5
O=c1c2c([nH]n1-c1ccccc1)CCCC2 | 1 | 1 | . | i | -9 | 9 | 2 | 6
COC(=O)[C@]1(CC(C)C)N[C@H](c2ccc(-c3ccc(OC)cc3)cc2)[C@@H]2C(=O)N(C)C(=O)[C@@H]21 | -6 | -4 | -26 | i | . | 18 | . | -28
CCCCCCSc1cc(-c2nc3ccc(C)cn3c2NCCCC)ccc1OC | 6 | -7 | -22 | . | . | 97* | . | 36
O=C(COC(=O)c1ccccc1O)NC(=O)NCc1ccccc1 | 8 | -1 | -9 | . | . | . | . | 4
CCN1C(=O)C(CC(=O)Nc2c(C)cccc2C)SC1=Nc1ccc(S(N)(=O)=O)cc1 (stereo not drawn) | 3 | 1 | 11 | i | -4 | 12 | -1 | .
CC(C)CN1CCC(=O)N([C@H](CO)Cc2ccccc2)CC1 | -1 | 5 | -9 | i | -2 | -2 | -2 | -15
CNC[C@H]1OCc2cnnn2CCCC(=O)N([C@H](C)CO)C[C@@H]1C | 0 | 2 | -7&-7 | . | . | . | . | 8
CC(C)C(NS(=O)(=O)c1cccs1)C(=O)NCc1ccc2c(c1)OCO2 (stereo not drawn) | 0 | 3 | -35 | i | 3 | 2 | -15 | 14
COc1cc(/C=N/NC(=O)c2cccc(N3CCCC3=O)c2)ccc1O | 1 | 0 | -10 | i | -3 | 12 | -2 | -7
CCOP(=O)(c1ccc(N(C)C)cc1)C(O)c1c(Cl)cccc1Cl (stereo not drawn) | 4 | 1 | -8 | i | -14 | -8 | -14 | 8
COc1ccccc1C(=O)COC(=O)Cc1n[nH]c(=O)c2ccccc12 | 0 | -1 | . | i | . | 0 | . | 6
COc1cc(NC(=O)c2ccco2)c(OC)cc1NC(=O)c1cc(OC)c(OC)c(OC)c1 | 20 | -12 | -20 | i | -12 | -9 | 3 | -53
COc1ccc(S(=O)(=O)Cc2ccc(C(=O)N3CCN(C4CCCCC4)CC3)o2)cc1 | 0 | -1 | -27 | i | 4 | -5 | 0 | .
COc1ccc(S(=O)(=O)N2CCN(c3ccccc3)CC2)cc1OC | 2 | -1 | -17 | . | . | . | . | 8
CCN1CCN(C(c2cccs2)C(C)NC(=S)NC2CCCCC2)CC1 (stereo not drawn) | 0 | 1 | . | i | -3 | -9 | 8 | -5
COc1ccc(Cl)cc1S(=O)(=O)N1CCCC(C(=O)NCC(N)=O)C1 (stereo not drawn) | -3 | 6 | 6 | i | . | -6 | . | .
CCSC1=NC(C)(C)C=C(C)N1 | -3 | 2 | -16 | i | 7 | -16 | -5 | .
C=CCSc1nc2sc3c(c2c(=O)n1CC)CCC3 | -2 | -1 | 16 | i | 25 | 26 | 12 | 14
CCOc1ccc(OCC)c(S(=O)(=O)n2ccnc2C)c1 | 1 | -2 | -19 | i | -7 | -9 | -2 | -1
Cc1onc(-c2c(F)cccc2Cl)c1C(=O)OCc1nnc(-c2ccccc2)o1 | -1 | -3 | -9 | . | . | -10 | . | .
Cc1ccc(-n2nc3c(N4CCC(C(=O)NCCc5cccs5)CC4)nnc(C)c3c2C)cc1 | -10 | -4 | -14 | i | -10 | 14 | -10 | 12
O=[N+]([O-])c1ccc2c(c1)C(O)n1nc(-c3ccccc3)nc1S2 (stereo not drawn) | 2 | 3 | -9 | i | -1 | -10 | 5 | -17
COc1ccc(N=C2C(=O)Nc3ccc(C)c(Br)c32)cc1 | -2 | 7 | -9 | i | -7 | 39 | 1 | -152
O=C(/C(=C/O)N=Nc1ccccc1)c1cccs1 | 4 | 3 | . | i | 9 | -13 | 13 | -3
CC(=O)Nc1ccc(C(=O)NCC(=O)OCc2c(F)cccc2Cl)cc1 | 6 | 5 | . | i | -5 | 0 | -7 | 14
COC(=O)c1c(NC(=O)CSc2n[nH]c(N)n2)sc(C)c1C | -1 | -2 | -23 | i | -3 | 3 | 1 | -46
Nc1nccc(/C=C/c2c(Cl)cccc2Cl)n1 | -7 | -9 | -24 | i | -9 | 6 | -11 | -11
Cc1ccc(CC2(O)CC(C)N(C)CC2C)c(C)c1 (stereo not drawn) | -9 | 1 | -12 | i | 7 | 1 | 7 | -16
O=c1c2ccccc2nnn1CSc1ccccc1F | -2 | -1 | -17 | i | 0 | 3 | 33 | -203
CCN1CCN(c2nc3c(C)cccn3c(=O)c2/C=C(\C#N)S(=O)(=O)c2ccc(C)cc2)CC1 | -2 | -1 | 13 | i | 13 | -11 | 22 | 4
C=CCn1c(CCSCc2ccc(OC)c(C)c2)n[nH]c1=S | 6 | -3 | -25 | i | 0 | -2 | 6 | 8
CCCCC(O)(CCCC)C(=O)NN(C(=O)OC)c1ccccc1 | 4 | 2 | -4 | i | -6 | -6 | -8 | .
O=C(CS(=O)(=O)c1ccccc1)Nc1ccc(S(=O)(=O)Nc2ccccn2)cc1 | 0 | 3 | . | i | -1 | -7 | 8 | 3
O=C(c1ccccc1NS(=O)(=O)c1ccc(Cl)cc1)N1CCc2ccccc21 | -1 | 2 | . | i | -5 | -13 | 2 | 6
Cc1nc(Nc2ccccc2Cl)sc1C(=O)Nc1ccccc1 | -3 | -5 | -1 | i | -10 | . | 5 | -3
(cont.)
SMILES | MT1-MMP act inh | MT1-MMP act inh RFP | Yeast UUG start | Rce1 inhib | eIF4H FP inh | CSC inhib | PABP FP inh | Env fusion inh | others
Cc1nc([N+](=O)[O-])c(Br)n1CC(=O)c1ccc(Cl)cc1 | -7 | -9 | . | i | -4 | 35 | -1 | .
C=CCSC1=NC(N)=C(C#N)C2(CCCCC2)C1C(N)=O (stereo not drawn) | 2 | 1 | 11 | i | 48 | -9 | -6 | -2
CC(C)Oc1ccc(C2CC(=O)N(Nc3ccc([N+](=O)[O-])cc3[N+](=O)[O-])C2=O)cc1 (stereo not drawn) | 2 | -4 | . | i | 8 | 20 | -3 | 1
O=C(c1ccccc1)C1CC1c1ccccc1 (stereo not drawn) | -2 | -1 | -8 | . | . | . | . | -8
O=C(COc1ccc(/C=N/NS(=O)(=O)c2ccccc2)cc1)Nc1ccc(F)cc1 | -2 | 2 | 8 | i | -14 | 8 | 0 | .
CC(C)c1ccc(NC(=O)COc2ccc(F)cc2C(=O)c2cnn(-c3ccccc3)c2)cc1 | -4 | -4 | 12 | i | -1 | 5 | -1 | -4
Cc1cccc(CCNC(=O)C2CCC(CNS(=O)(=O)c3cccs3)CC2)c1 (stereo not drawn) | -8 | -4 | -46 | i | -3 | 13 | -3 | 0
Cn1c(-c2ccccc2)cc2c3no[n+]([O-])c3ccc21 | -13 | -16 | . | i | -5 | 108* | -7 | .
O=S(=O)(NC1CCCC1)c1cccc(S(=O)(=O)N2CCC(n3nnc4ccccc43)CC2)c1 | 7 | 3 | 6 | i | 16 | -2 | 10 | 23

Screens as filed in PubChem.
